# MgrA-DNA mod: modulators of Staphylococcus aureus MgrA DNA binding; fluorescence polarization; inhibition, %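 (about 10 µg/mL by stock and volumes)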; 84,000 tested, 0.13% active;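 active = above 50% in either of two replicates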;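 also: 0% = protein plus DNA without compound and 100% = DNA alone without protein; higher means less MgrA bound to DNA so lower polarization; one replicate is shown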
# S aureus helic: S. aureus DNA helicase inhibition | purified S. aureus helicase, fluorescence unwinding assay; about half of the hits fall short of the stated cut | AID 485395 | 120,000 tested, 0.05% active | inhibition, %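 (tested at about 80 µM)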;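 active = both duplicates at 50% or more, or one of them with a favoured structure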;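 also: 0% = mean of negative control wells and 100% = mean of positive control wells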
# * hit, by the source's call; . = no result given. Only part of the results is shown (hit frequency here may not be typical).
SMILES,MgrA-DNA mod,S aureus helic
O=C1C(c2ccccc2)Nc2c3ccccc3nc(=S)n21 (configuration not stated),2.2,-3
C[C@H](CCC(=O)O)[C@H]1CCC2C3C(=O)CC4CC(=O)CC[C@]4(C)C3CC(=O)[C@@]21C (some centres not stated),1.1,.
COC(CN(C)C(=O)c1cn(C)c2ccc(S(=O)(=O)N3CCOCC3)cc2c1=O)OC,-0.8,15
NC1=NC(=O)C(CC(=O)Nc2ccc(N3CCCCC3)cc2)S1 (configuration not stated),.,-10
COc1ccc(C2c3ccsc3CCN2C(C)=O)cc1 (configuration not stated),-1.6,.
CCCc1cc(=O)n2[nH]c(NC(=O)CC)nc2n1,.,20
Cc1ccc(N2C(=O)SC(Nc3ccccc3)C2=O)cc1 (configuration not stated),0.3,-2
OCc1cc(-c2ccccc2Cl)no1,-2.8,.
O=C(CS(=O)(=O)c1cn(CC(=O)N2CCCC2)c2ccccc12)Nc1ccccc1,.,-13
COC(=O)C1CN(C(=O)c2cccs2)c2ccccc2O1 (configuration not stated),.,6
Cc1ccc(Sc2ncccc2-n2c(C)ccc2C)cc1,0.9,.
Cc1ccc(S(=O)(=O)Nc2ccccc2/C(O)=C(\C#N)c2nc3ccccc3n2C)cc1,4.4,19
Cc1ccc(C(=O)Nc2ccc(-c3nc4ccccc4o3)c(O)c2)cc1,2.1,18
Cc1nc(-c2ccccc2)nc2[nH]c(C(C)C)cc(=O)c12,.,14
COc1cc(C(=O)O/N=C(\N)c2ccc3c(c2)OCO3)cc(OC)c1OC,-3.7,.
CC(=O)Nc1ccc(N/C=C/C(=O)c2ccco2)cc1,1.8,-7
Nc1c(C(=O)NCc2cccs2)c2nc3ccccc3nc2n1-c1ccc2c(c1)OCO2,.,5
COc1ccc(/C=C2/SC(=S)N(c3c(C)n(C)n(-c4ccccc4)c3=O)C2=O)c(C(=O)O)c1OC,3.6,.
O=S(=O)(/N=S1/CCC2(C1)OCCO2)c1cc(C(F)(F)F)cc(C(F)(F)F)c1 (configuration not stated),-0.8,.
FC(F)(F)c1ccc(NCCNc2ccc(C(F)(F)F)cn2)nc1,0.6,-15
Cc1ccc(CC(=O)NC2CCSC2=O)cc1 (configuration not stated),2.8,21
O/N=c1/sc2ccccc2n1CCS,-1.4,6
O=C(CCc1ccccc1)N/N=C/c1cccc(O)c1,3.8,-2
O=C1c2ccccc2C(=O)N1CSc1ccccc1,.,7
c1ccc(-c2noc(NC3CCCC3)n2)cc1,.,9
O=C(O)COCC1CCCO1 (configuration not stated),-1.0,13
NC(=O)c1oc2ccccc2c1NC(=O)C1CC(=O)N(c2ccc(F)cc2)C1 (configuration not stated),.,-13
CC(CN(C)Cc1ccccc1)OC(=O)c1cccc(F)c1 (configuration not stated),.,0
CCCc1n[nH]c2c1/C(=N\OCC)CC(C)(C)C2,1.2,1
Cc1nc2sccn2c(=O)c1S(=O)(=O)N1CCc2ccccc2C1,.,13
CCCC(c1nnnn1CCC(C)C)N1CCC(C(N)=O)CC1 (configuration not stated),-2.2,7
COc1cccc(C2C(=O)N(C3CCC(C)CC3)CC(=O)N2CCc2ccccc2)c1OC (configuration not stated),.,17
N#CCOC(=O)c1cc2c(s1)CCCCC2,.,3
c1ccc2c(c1)[nH]c1nc(SCCN3CCCCC3)nnc12,.,13
CCOC(=O)Cc1nnc(-c2ccccc2)o1,0.6,8
CSc1sc(=S)sc1SC,-0.5,.
CCn1c(C2COc3ccccc3O2)n[nH]c1=S (configuration not stated),.,-12
COCCn1cnnc1SCC(=O)NC(=O)C1CCCCC1,.,-9
CC1CN(S(=O)(=O)c2ccc(F)cc2)C(C)CN1S(=O)(=O)c1ccc(F)cc1 (configuration not stated),-0.9,7
CN(C)CCCNc1c(N)c(=O)oc2ccccc12,.,27
O=C(CN1C(=O)CCSc2ccccc21)N1CCCC1,9.6,1
CN(c1ccccc1C(=O)O)S(=O)(=O)c1ccc2c3c(cccc13)C(=O)N2,12,15
N#Cc1c(N)c(C(=O)c2ccccc2)n2ccccc12,.,-6
CC(C)C(=O)Nc1nnc(-c2ccc(Cl)cc2)s1,.,20
Cc1nc(Oc2ccc(Cl)cc2)c(C(=O)O)c(C)c1Cl,1.8,6
Cc1n[nH]c(C)c1Cc1c(Cl)cccc1Cl,-0.8,.
Cc1ccc(S(=O)(=O)NCc2ccccc2)cc1C(=O)N1CCCCCC1,1.4,3
Cc1csc(NC(=O)Cn2cnc3c2c(=O)n(C)c(=O)n3C)n1,.,-11
Cc1ccc2nc3c(c(N)c2c1)CCCC3,1.9,8
CNC(=S)Nc1ccc(OC(F)(F)F)cc1,5.0,20
COc1ccc2c(C)cc(SCC(=O)Nc3ccc4c(c3)OCO4)nc2c1,.,-22
O=C(/C=C/c1ccco1)N1CCN(Cc2ccccc2)CC1,.,-6
CCCc1nc(NCCc2cccs2)c2nnn(Cc3ccccc3Cl)c2n1,0.9,12
CC(=O)Nc1ccc2c(c1)CCc1ccccc1-2,-0.5,.
CCc1nnc(NC(=O)c2c(C)nn(-c3ccccc3)c2Cl)s1,.,10
CNc1nc2ccccc2n2c(C)nnc12,0.9,6
CCOC(=O)C1CCN(C(=O)C(Cc2ccccc2)NS(=O)(=O)c2ccc3c(c2)CCC(=O)N3)CC1 (configuration not stated),.,-20
COc1cccc(NC(=O)C2CCN(c3nn4c(=O)cc(C)nc4s3)CC2)c1,.,-24
CC1CCc2[nH]c3ccc(C(=O)NCCCN4CCCC4=O)cc3c2C1 (configuration not stated),.,-3
Cc1nc(SCC(=O)Nc2cccc(C(F)(F)F)c2)[nH]c(=O)c1C,.,15
# The list continues:
SMILES,MgrA-DNA mod,S aureus helic
OCCSc1ccc(Oc2ccc(SCCO)cc2)cc1,.,11
Cc1sc(-c2cccs2)nc1O,4.0,.
Cc1nc(-c2cccs2)sc1C(=O)Nc1ccccc1,.,-5
CN(C(=O)c1ncn[nH]1)c1ccccc1,.,15
CC(CC(=O)N1CCN(c2ccc(F)cc2)CC1)CC1=NS(=O)(=O)c2ccccc2N1 (configuration not stated),.,2
Cc1onc(-c2ccccc2)c1NC(=O)Nc1ccc(OC(F)F)cc1,.,-24
CCOc1ncccc1C(=O)OCc1ccc(Cl)cc1,.,-5
CCOC(=O)Cc1csc(NC(=O)C2CCCCC2C(=O)O)n1 (configuration not stated),.,10
Cc1ncc(CO)c2cc(-c3nnc(Nc4cc(C(F)(F)F)ccc4Cl)s3)c(=O)oc12,0.2,2
CC(O)Cc1nnc(SCc2nnc(-c3ccccc3)o2)n1-c1ccccc1 (configuration not stated),0.2,2
CC(=O)Nc1nnc(SCC(=O)c2ccccc2)s1,.,9
Cc1c(OCC#N)ccc2c3c(c(=O)oc12)CCC3,.,-21
O=S(=O)(/C=C/c1ccccc1)N1CCN(c2ccc(S(=O)(=O)N3CCCCC3)cn2)CC1,.,-10
O=C(Nc1cccc(C(F)(F)F)c1)N1CCC(CN2CCc3ccccc3C2)CC1,0.3,6
CC1=C(C(=O)Nc2ccccc2)C(c2ccccc2Cl)C(C#N)=C(SCC(N)=O)N1 (configuration not stated),.,-21
CN1C(=O)CSc2ccc(NC(=O)NCc3ccccc3)cc21,.,25
O=C(OCn1nnc2ccccc2c1=O)C1CCN(S(=O)(=O)c2cccs2)CC1,.,-1
O=C1c2ccccc2C(=O)c2c1ncn2-c1ccccc1,1.4,5
Cc1cc(C)cc(OCC(=O)OCc2nnc(-c3ccccc3)o2)c1,.,6
CN1CCN(/N=C/c2sc(Nc3ccccc3)nc2Cl)CC1,.,-79
CCC(C(=O)Nc1cccc(NC(C)=O)c1)c1ccccc1 (configuration not stated),-0.8,1
C=CCn1c(SCCC(=O)NCc2ccc3c(c2)OCO3)nc2scc(-c3ccco3)c2c1=O,-1.4,8
O=C1NC(c2ccccc2)Nc2c1sc(=S)n2-c1ccccc1 (configuration not stated),.,26
O=C1/C(=C\c2cccs2)SC(=S)N1CC1CCCO1 (configuration not stated),0.1,9
Cn1/c(=N/NC(=O)C2=NN(c3ccccc3)C(=O)CC2)sc2ccccc21,.,0
Nc1c(N(C(=O)CC2OC(=O)c3ccccc32)C2CCCC2)c(=O)[nH]c(=O)n1Cc1ccccc1 (configuration not stated),.,-1
CCS(=O)(=O)c1ncc(Cl)c(C(=O)NCCc2ccc(OC)c(OC)c2)n1,.,-15
Cc1ccc(N=C2NC(=O)CC(C(=O)O)S2)cc1 (configuration not stated),.,8
CCOC(=O)c1csc(N2CCc3ccccc32)n1,2.0,19
CC(C)(O)CNC(=O)C(Cc1ccccc1)N1C(=O)c2ccccc2C1=O (configuration not stated),.,5
Cc1cc(OCC(=O)c2cc(C)n(-c3nccs3)c2C)ccc1Cl,.,9
CCOC(=O)c1c(S(=O)(=O)Nc2ccc(OC)c(Cl)c2)c(C)n(C)c1C,.,3
O=C(CSc1ncnc2c1oc1ccccc12)Nc1cccc2ccccc12,.,19
CCOc1ccc2sc(C=NCc3ccc(F)cc3)c(O)c2c1,-0.3,.
CCOC(=O)N1CCN(S(=O)(=O)c2cccs2)CC1,.,8
CN(C(=O)c1ccc(Br)o1)C1CCS(=O)(=O)C1 (configuration not stated),.,-15
O=c1c2ccccc2nnn1CSc1nnc(CN2CCCC2)n1Cc1ccccc1,.,10
CCN(C(=O)c1cc2c(C)nc3ccccc3c2o1)c1cccc(Cl)c1,0.0,-11
c1cc(CN2CCC(N3CCCCC3)CC2)ccn1,-1.1,9
O=C(CCSc1cccs1)Nc1cccnc1,-2.6,.
Cc1cc(N2CCC(C(=O)NC3CC3)CC2)n2nc(C)c(-c3ccc(Cl)cc3)c2n1,.,-4
CC(Sc1ncnc2ccccc12)C(=O)Nc1cccc(C(F)(F)F)c1 (configuration not stated),-1.6,-12
Cn1c(CNC(=O)c2ccccc2)nnc1SCc1ccccc1,-1.4,.
CC(=O)OC[C@H](OC(C)=O)[C@H](OC(C)=O)[C@@H](OC(C)=O)[C@H](OC(C)=O)C(N)=O,-0.7,.
COc1cc2c(cc1OC)C(c1cccnc1)N(C(C)=O)CC2 (configuration not stated),-1.1,2
O=C(O)Cc1cncc(Br)c1,-0.8,.
CN1CCN(C(=S)C(=O)Nc2ccccc2)CC1,0.9,-6
Cc1cc(C)c2c(N)c(C(=O)c3ccccc3Cl)sc2n1,-0.1,.
O=c1oc2ccccc2cc1-c1ccn[nH]1,5.2,.
CN(Cc1c(F)cccc1Cl)C(=O)COc1ncnc2ccccc12,.,-8
CCCNC(=O)c1ccc(C(=O)NCCC)cc1,2.0,2
CCc1cc2c(cc3c(=O)[nH]ncn32)s1,-0.8,10
Cc1ccc(-c2ncc(-c3ccccc3)o2)cc1,1.4,-3
O=C(CC1SC(=Nc2ccc(OC(F)F)cc2)N(CCN2CCOCC2)C1=O)Nc1ccc(F)cc1F (configuration not stated),.,-7
CC1CN=C(N(CCc2ccccc2)C(=O)Nc2ccc(Cl)cc2)S1 (configuration not stated),-0.4,.
COc1cc(NS(=O)(=O)c2ccc(NC(=O)CSc3nc4ccccc4s3)cc2)nc(OC)n1,2.0,.
O=C(CCc1nc(-c2ccccc2)no1)OCc1c(Cl)cccc1Cl,.,-11
O=C(CN1CCN(Cc2ccccc2)CC1)N/N=C\c1ccccc1,.,10
COc1cc(OC)cc(-c2nnc(SCc3cccc(S(=O)(=O)N(C)C)c3)o2)c1,.,3
C=CCn1c(SCC)nc(O)cc1=O,-2.2,8

# Record cards, from the list above. Order of values: MgrA-DNA mod, S aureus helic
# O=C(CCc1nc(-c2ccccc2)no1)OCc1c(Cl)cccc1Cl as listed: ., -11
# C=CCn1c(SCC)nc(O)cc1=O as listed: -2.2, 8

# Later entries
SMILES,MgrA-DNA mod,S aureus helic
CCN(CC)S(=O)(=O)c1ccc(NC(=O)Nc2ccc(F)cc2)cc1,-2.2,5
COc1nnc(-c2ccc(C)c(S(=O)(=O)NCc3cccnc3)c2)c2ccccc12,.,-5
CN(C)c1ccc(C(=O)N2CCc3ccccc32)cc1,.,8
CCN1CCCC1CNc1nc2ccc(C(=O)c3ccccc3)cc2n2cnnc12 (configuration not stated),.,19
COc1cc(OC)cc(-c2nnc(SCC(=O)N3CCc4ccccc43)o2)c1,.,35

# Not a retest: entries from further up.
SMILES,MgrA-DNA mod,S aureus helic
Cc1cc(C)c2c(N)c(C(=O)c3ccccc3Cl)sc2n1,-0.1,.
O=c1oc2ccccc2cc1-c1ccn[nH]1,5.2,.
CN(Cc1c(F)cccc1Cl)C(=O)COc1ncnc2ccccc12,.,-8
CCCNC(=O)c1ccc(C(=O)NCCC)cc1,2.0,2
CCc1cc2c(cc3c(=O)[nH]ncn32)s1,-0.8,10
Cc1ccc(-c2ncc(-c3ccccc3)o2)cc1,1.4,-3
O=C(CC1SC(=Nc2ccc(OC(F)F)cc2)N(CCN2CCOCC2)C1=O)Nc1ccc(F)cc1F (configuration not stated),.,-7
CC1CN=C(N(CCc2ccccc2)C(=O)Nc2ccc(Cl)cc2)S1 (configuration not stated),-0.4,.
COc1cc(NS(=O)(=O)c2ccc(NC(=O)CSc3nc4ccccc4s3)cc2)nc(OC)n1,2.0,.
O=C(CCc1nc(-c2ccccc2)no1)OCc1c(Cl)cccc1Cl,.,-11
O=C(CN1CCN(Cc2ccccc2)CC1)N/N=C\c1ccccc1,.,10
COc1cc(OC)cc(-c2nnc(SCc3cccc(S(=O)(=O)N(C)C)c3)o2)c1,.,3
C=CCn1c(SCC)nc(O)cc1=O,-2.2,8
CCN(CC)S(=O)(=O)c1ccc(NC(=O)Nc2ccc(F)cc2)cc1,-2.2,5
COc1nnc(-c2ccc(C)c(S(=O)(=O)NCc3cccnc3)c2)c2ccccc12,.,-5
CN(C)c1ccc(C(=O)N2CCc3ccccc32)cc1,.,8
CCN1CCCC1CNc1nc2ccc(C(=O)c3ccccc3)cc2n2cnnc12 (configuration not stated),.,19
COc1cc(OC)cc(-c2nnc(SCC(=O)N3CCc4ccccc43)o2)c1,.,35

# Screening results as filed in PubChem.
